High-throughput results (PubChem)
VACV Venus inh: vaccinia inhibition (Venus reporter). 330,000 compounds, 0.46% hits. Potency, µM (series often up to 36.5 µM), inactives show top-dose activity change, negative = inhibition, actives largely listed as inhibitors. Vaccinia virus Venus reporter expression, fluorescence. AID 720580; active means well fitted inhibition curve with a large enough effect; inconclusive means small, poorly fitted or top-dose-only effect; inactive means no such curve, though single readings can be large or run the other way; tested in A549 cells; further: nearly all actives have a fitted effect of over 30% in size; inactives centre near -10
Vaccinia mCherry: vaccinia inhibition (mCherry reporter); Vaccinia virus mCherry reporter infection, fluorescence; about a quarter of the inactives have no number; 310,000 compounds, 0.63% hits; Potency, µM (titrated, usually from 36.5 µM), for the others: top-dose activity change, negative = inhibition, most hits filed as inhibitors; active = well fitted inhibition curve with a large enough effect; inconclusive = small, poorly fitted or top-dose-only effect; inactive = no such curve, though single readings can be large or run the other way; tested in A549 cells; further: nearly all actives have a fitted effect of over 35% in size; inactives centre near -10
Starred values were filed as active, the others as inactive; i = inactive; u = inconclusive; x = no result given; [ ] = remark or other dose. On the % scale 0 is the no-effect control and ±100 the full control effect; potency means the concentration at half of the fitted maximal effect.

canonical_smiles	VACV Venus inh	Vaccinia mCherry
CCOC(=O)C(C(=O)N1CCOCC1)C1CCCCC1 (stereo not drawn)	-10%	-8%
Cc1nnsc1C(=O)Nc1ccc(S(=O)(=O)N2CCCCC2)cc1	-25%	i
O=C(NCCc1ccccc1)C(=O)N/N=C/c1ccc2c(c1)OCO2	u	x
CC1CCC(NC(=O)c2ccc3c(c2)N(Cc2ccccc2)C(=O)c2ccccc2S3(=O)=O)CC1 (stereo not drawn)	-14%	-13%
CC1(C)C(=O)N(CC(=O)Nc2ccc(OC(F)(F)F)cc2)c2ccccc21	-4%	-5%
COc1cc(OC)cc(C(=O)NCC2Cc3cccc(-c4nc(C)cnc4C)c3O2)c1 (stereo not drawn)	8%	-12%
N#Cc1nc(Cc2ccccc2)oc1NCc1ccccc1Cl	-28%	x
CCn1c(SCC(=O)NC)nnc1C(C)C	-11%	-22%
COc1cc(C2Nc3cccc4cccc(c34)N2)ccc1OC(C)=O	-1%	-9%
CCOC(=O)N1CCN(C(=O)CSC2=NS(=O)(=O)c3cc(Cl)ccc3N2)CC1	-8%	-11%
CC(=O)Nc1ccc2nc(N)sc2c1	-7%	i
Cc1ccc2nc(-c3ccccc3)c(CN3CCSCC3)n2c1	-12%	i
CCOc1ccc(CNC(=O)c2ccc3c(c2)sc2nc(-c4ccc(OC)cc4)cn23)cc1	-2%	-2%
CCOc1cc(C2C(C#N)=C(N)Oc3n[nH]c(C)c32)ccc1OCCN1CCOCC1 (stereo not drawn)	-5%	-17%
O=C(NNC(=S)NCc1ccco1)c1ccc(S(=O)(=O)N2CCOCC2)cc1	-9%	-12%
OC(c1cccc(F)c1)c1ncc(-c2ccc(Oc3ccccc3)cc2)[nH]1 (stereo not drawn)	-22%	-30%
Cc1cccc(Nc2ccccc2C(=O)OCC(=O)N(C)C2CCS(=O)(=O)C2)c1C (stereo not drawn)	-12%	-14%
NC(=O)C(=O)NCCCN1CCOCC1	0%	-2%
CCc1ccc2nc3sc(C(=O)Nc4nnc(CC)s4)c(N)c3cc2c1	4%	-4%
CCOC(=O)c1c(C)[nH]c(C(=O)COC(=O)[C@H](C)NC(=O)c2ccccc2Cl)c1C	-7%	i
CC(C)c1ccccc1OCCNS(C)(=O)=O	-9%	x
CC(=O)Nc1ccc(Sc2ncccc2C(=O)Nc2cc(Cl)cc(Cl)c2)cn1	-20%	u
CN(C)S(=O)(=O)c1ccc(NC(=O)CSc2nc3ccccc3n2-c2ccccc2)cc1	-21%	u
CCOC(=O)C1CCCN(C(=O)c2ccc(C)c([N+](=O)[O-])c2)C1 (stereo not drawn)	-2%	i
O=C1c2ccccc2C(=O)N1CCCCNc1ccccc1	-19%	-8%
COc1cc(C2Nc3ccccc3C(=O)N2c2ccc(Cl)cc2)c(Cl)cc1OCC(=O)O (stereo not drawn)	-4%	-4%
O=C(O)/C=C/c1ccc(S(=O)(=O)Nc2ccc(C(=O)NCC(=O)O)cc2)cc1	-9%	-5%
COc1ccc2c(C(=O)c3ccc(C)cc3)n(Cc3ccc(C(N)=O)cc3)[n+]([O-])c2c1	-25%	i
Cc1ccc(S(=O)(=O)NC(=O)c2cc(C)n(CCCn3ccnc3)c2C)cc1	1%	x
COC(=O)C1=C(c2ccc(Cl)c(C(F)(F)F)c2)C[C@@H]2CC[C@H]1N2C(=O)N1CCC(C)CC1	-14%	-16%
COc1ccc(NC(=O)NCCCN2CCN(c3cc(C)ccc3C)CC2)cc1	-16%	u
Cc1ccc(OCC(=O)Nc2ccc(S(=O)(=O)N3CCN(C)CC3)cc2)cc1	-19%	-2%
Cc1ccc(NC(=O)c2cnccn2)cc1S(=O)(=O)N(C)C	-17%	-19%
CCOc1ccc(NS(=O)(=O)c2coc(C(N)=O)c2)cc1	-1%	2%
Cc1ccc(CNC(=O)COC(=O)c2ccc(S(=O)(=O)N(C)C)cc2)cc1	-2%	-4%
C/C(=N/Oc1nc(C)cc(C)n1)c1ccc(Cl)cc1Cl	-13%	x
CC1(C)CC(N2CCN(Cc3ccccc3)CC2)=CC(=[N+]2CCCCC2)C1	-20%	i
NC(=O)C1=C[C@H](c2coc3ccccc3c2=O)C[C@H](OCc2ccc(CO)cc2)O1	-12%	-29%
Cc1ccc(C(=O)N2[C@@H]3CN(C)C(=O)[C@@]2(C)[C@H]2C(=O)N(Cc4ccccc4)C(=O)[C@@H]32)cc1	-6%	i
Cc1cc(OCC(=O)Nc2nnc(C3CC3)s2)ccc1Cl	-2%	i
O=C(COc1cc2oc(=O)c3c(c2cc1Cl)CCC3)NCCN1CCOCC1	-6%	-2%
COc1ccc(C2=NOC(C(=O)NCc3cccnc3)C2)cc1OC (stereo not drawn)	-12%	-7%
COC(=O)CN1C(=O)CSc2ccc(S(=O)(=O)Nc3ccc(C(C)=O)cc3)cc21	-4%	-4%
CC(OC(=O)c1ncc(Cl)c(Cl)c1Cl)C(=O)NC1CCCCC1C (stereo not drawn)	-9%	-12%
O=C(CN(C(=O)CSc1nnc(COc2ccccc2)o1)c1ccc(F)cc1)NC1CCCCC1	-22%	-10%
CCN(CC)S(=O)(=O)c1ccc(NC(=O)CSc2ncnc3ccccc23)cc1	-23%	-30%
C[C@H](NC(=O)c1nc[nH]c1C(=O)N[C@@H](Cc1ccccc1)C(=O)OC(C)(C)C)C(=O)OC(C)(C)C	u	u
CC#CC(=O)N1CCC(Oc2cccc(C(=O)NCc3ccccn3)c2)CC1	-19%	-9%
CC(=O)c1cccc(NC(=O)CN2C(=O)CN(C)C(=O)c3ccccc32)c1	-12%	-11%
CCN(CC)C(=O)CN1C(=O)COCC1=O	-9%	i
Cc1cc(C(=O)COc2ccc3ccc(=O)oc3c2)c(C)n1Cc1cccs1	-10%	-14%
CCCc1cc(=O)[nH]c2nnc(SCC)n12	-14%	-5%
CC(=O)O[C@H]1C(=O)[C@]2(C)[C@H]([C@H](OC(=O)c3ccccc3)[C@]3(O)C[C@H](OC(=O)[C@H](O)[C@@H](NC(=O)c4ccccc4)c4ccccc4)C(C)=C1C3(C)C)[C@]1(OC(C)=O)CO[C@@H]1C[C@@H]2O	-26%	-18%
Cc1ccc(NC(=O)c2ccccc2NS(=O)(=O)c2ccc(Cl)s2)cc1S(=O)(=O)N1CCOCC1	u	-23%
O=[N+]([O-])c1cc(/C=N\Nc2nc(-c3ccccc3)cs2)ccc1O	2%	u
CCc1ccc(NC(=O)Cn2c(=O)n(CCCC(=O)NCc3ccccc3Cl)c(=O)c3ccccc32)cc1	-18%	-23%
COc1cc2ccccc2cc1C(=O)Nc1ccc2oc(-c3cc(Br)ccc3Cl)nc2c1	31%[activator]	8%
CC(C)(C)Sc1ccc(/C=N/O)cc1[N+](=O)[O-]	-26%	i
CCOC(=O)c1c(NC(=O)CSc2cn(CCNC(=O)c3cccc(C(F)(F)F)c3)c3ccccc23)sc2c1CCC2	1%	-10%
COCCn1c(N)c(N(Cc2ccccc2)C(=O)c2ccc(-c3ccc(Cl)cc3)o2)c(=O)[nH]c1=O	-27%	-6%

7 entries from above, with values under each structure:
Every second line gives: VACV Venus inh	Vaccinia mCherry
- CCCc1cc(=O)[nH]c2nnc(SCC)n12
    -14%	-5%
- C[C@H](NC(=O)c1nc[nH]c1C(=O)N[C@@H](Cc1ccccc1)C(=O)OC(C)(C)C)C(=O)OC(C)(C)C
    u	u
- CC(=O)O[C@H]1C(=O)[C@]2(C)[C@H]([C@H](OC(=O)c3ccccc3)[C@]3(O)C[C@H](OC(=O)[C@H](O)[C@@H](NC(=O)c4ccccc4)c4ccccc4)C(C)=C1C3(C)C)[C@]1(OC(C)=O)CO[C@@H]1C[C@@H]2O
    -26%	-18%
- Cc1cc(C(=O)COc2ccc3ccc(=O)oc3c2)c(C)n1Cc1cccs1
    -10%	-14%
- Cc1ccc(NC(=O)c2ccccc2NS(=O)(=O)c2ccc(Cl)s2)cc1S(=O)(=O)N1CCOCC1
    u	-23%
- COCCn1c(N)c(N(Cc2ccccc2)C(=O)c2ccc(-c3ccc(Cl)cc3)o2)c(=O)[nH]c1=O
    -27%	-6%
- O=[N+]([O-])c1cc(/C=N\Nc2nc(-c3ccccc3)cs2)ccc1O
    2%	u

Remaining list, next part.
canonical_smiles	VACV Venus inh	Vaccinia mCherry
O=C(NCc1ccc(Cl)cc1)C1C2C=CC3(CN(Cc4cccnc4)C(=O)C13)O2 (stereo not drawn)	-6%	-14%
CC(C)C[C@@H]1O[C@H](CCc2ccccc2)Cc2[nH]c(=S)[nH]c(=O)c21	-9%	22%
Cc1cc(Br)ccc1NC(=O)c1sc2ncnc(N3CCN(c4ccccn4)CC3)c2c1C	-16%	i
CNC(=O)OCc1cocc1COC(=O)NC	7%	1%
COC(=O)CN1C(=O)C(C)(C)c2cc(S(=O)(=O)Nc3ccc(Br)cc3F)ccc21	-3%	-11%
COc1ccccc1CCNC(=O)CSc1ccc(-c2cccs2)nn1	-21%	i
Cc1ccc(C)c(N2CCN(S(=O)(=O)c3csc(C(N)=O)c3)CC2)c1	-29%	-29%
O=P(O)(CCc1ccccn1)CN1CCCCC1	-1%	-2%
CCOC(=O)c1noc2ncn(CC(=O)O)c(=O)c12	-17%	i
CCC1Oc2ccc(C)cc2N(CC(=O)N2CCN(c3ccccc3OC)CC2)C1=O (stereo not drawn)	-24%	-21%
Cc1ccccc1-c1cnc(C(O)c2ccc(F)cc2C)[nH]1 (stereo not drawn)	-9%	i
C=C(C)C(=O)OCC(=O)NCc1ccccc1	-9%	i
Cn1ncc(C(=O)Nc2ccc(Cl)cc2)c1C(F)(F)F	-21%	i
O=C(Cc1ccccc1)NCC(=O)N1CCN(c2ccc(F)cc2)CC1	-12%	i
Cc1cccc(C)c1NC(=O)C(c1ccccc1)N1CCC(c2ccccc2)CC1 (stereo not drawn)	0%	-5%
Cc1ccc(Cn2cc(C(=O)c3ccc(F)cc3)c(=O)c3cc4c(cc32)OCO4)cc1	2%	6%
O=C(CCN1CCN(c2ccccn2)CC1)Nc1ccc(F)cc1	-18%	x
CCOC(=O)C(C)Sc1ccc2nnc(CCNS(=O)(=O)c3ccc(C)cc3)n2n1 (stereo not drawn)	-5%	-4%
Cc1ccc(-c2nnc(-c3ccc(NC(=O)Cc4cccs4)cc3)o2)cc1	-13%	-9%
CCOc1cccc2cc(-c3csc(NC(=O)CCC(=O)NCCN4CCCCC4C)n3)c(=O)oc12 (stereo not drawn)	u	11µM*
Cc1cc(Nc2cccc(C(F)(F)F)c2)nc2ccc(NC(=O)c3ccc(=O)[nH]c3)cc12	-12%	-1%
CCOC(=O)Cn1cnc2scc(-c3ccc(C)c(C)c3)c2c1=O	-15%	i
COc1ccc(C(=O)OCC(=O)C(C)(C)C)cc1S(=O)(=O)N(C)CCc1cccnc1	-15%	10%
COc1ccc(CCNC(=O)C2(c3cccs3)CCOCC2)cc1	-4%	-15%
Cc1ccccc1NS(=O)(=O)c1cc(S(C)(=O)=O)ccc1Cl	-17%	-22%
C=CCOC(=O)C(=O)/C=C/c1ccc2c(c1)Cc1ccccc1-2	2%	i
CC1CCC(NC(=O)CN(C)S(=O)(=O)c2ccc3c(c2)CCC(=O)N3)CC1 (stereo not drawn)	-11%	i
CCOc1c(C(N)=O)cc([N+](=O)[O-])cc1[N+](=O)[O-]	5%	i
Cc1cc(C)cc(NS(=O)(=O)c2ccc3c(c2)CCCN3C(=O)C2CCC2)c1	-23%	-30%
CCN(CC)C(=O)C1CCN(C(=O)c2oc3ccc(C)cc3c2C)CC1	-7%	-12%
CCn1c(CN2CCOCC2)nc2cc(NC(=O)c3ccccc3[N+](=O)[O-])ccc21	-4%	-13%
CCN(C(=O)c1cnc2ccc(C)cn2c1=O)c1ccccc1	-10%	-11%
CCOc1ccccc1NC(=O)CSc1ncnc2c1oc1ccccc12	-4%	-9%
CN(C)c1ccc(/C=N/NC(=O)c2cc(-c3ccc4c(c3)OCO4)n[nH]2)cc1	-24%	-1%
O=C(Cc1ccccc1[N+](=O)[O-])Nc1ccccc1C(=O)N1CCCC1	-11%	0%
COc1cccc(C(=O)N/N=C/c2cn[nH]c2-c2ccc(OC)cc2OC)c1	-9%	x
CCCOc1ccc(OCCOCCNCc2ccccc2)cc1	-14%	i
CCC(OC(=O)c1ccco1)C(=O)NCc1ccc(OC)cc1 (stereo not drawn)	5%	-3%
COc1ccccc1/C=C\C(=O)O	-5%	-8%
COCCN1Cc2cccc(C(=O)NCc3ccccn3)c2C1=O	-8%	i
Fc1cccc(CSc2nc3ncccc3[nH]2)c1	-11%	x
Cc1nc(SCC(=O)NC(=O)NCc2ccccc2)nc(C)c1C	-12%	i
CC(=O)OC1C2CCCC1C(N1CCCC1)CC2 (stereo not drawn)	u	x
COc1ccc(CC(=O)Nc2nc(OCC(F)(F)F)cnc2-c2ccc(Cl)cc2Cl)cc1	15%	30%
Cc1cc(Br)c2c(c1)=C(c1sc(N3CCCCCC3)nc1O)C(=O)N=2	-3%	-7%
CSc1ccccc1C(=O)NCc1cccnc1	-4%	i
CC(C(=O)NCc1cccs1)n1cccc1 (stereo not drawn)	-3%	-10%
COc1ccc(OCC(=O)N2CCN(Cc3c[nH]c4ccccc34)CC2)cc1	-22%	u
CCC1=C(OC(=O)N(CC)CC)N2C(=O)OC(=NCCc3c[nH]c4ccccc34)[C@]2(Cc2ccccc2)[C@H]2C1=CC[C@H]1C(=O)NC(=O)[C@H]12	u	u
